miR-21 FLuc – raises the signal of a miR-21 reporter | HeLa miR-21 FLuc reporter, luciferase, 48 h | Potency, µM (series often up to 38.3 µM), for inactives: top-dose reporter change, positive = more light | 340,000 tested, under 10 active | AID 2288; active = well fitted rising curve with a large enough effect; inconclusive = small, poorly fitted or top-dose-only effect; inactive = no such curve, though single readings can be large or run the other way;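 further: % of control where 0% means no effect; miR-21 action dims this reporter so a rising signal means less miR-21 action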
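Using DMEM plus 10% FBS, HeLa miR-21-FLuc cells are incubated with test compounds (final up to about 40uM) for 48 hours; firefly luciferase signal is then imaged following reagent-mediated lysis.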
* = called active by the depositor; ? = inconclusive. Not all compounds are listed; the hit share may differ from the screen's.

no.	miR-21 FLuc	smiles
1	9%	COc1ccc(-n2c(SCC(=O)Nc3cccc(C)c3C)nc3c([nH]c4ccccc43)c2=O)cc1
2	1%	COc1ccc(-n2ccnc(NCCc3ccc(S(N)(=O)=O)cc3)c2=O)cc1
3	-1%	Cc1cccc(NC(=O)c2oc3ccccc3c2NC(=O)c2cc(=O)c3cc(Cl)ccc3o2)c1
4	-2%	CC(=O)Nc1cccc(NC(=O)C(=O)NCCc2sc(-c3ccccc3)nc2C)c1
5	5%	COc1ccc(C(=O)Nc2nc3c(s2)Cc2c(Br)ccc(OC)c2-3)cc1OC
6	-1%	Cn1c(=O)cc(SCC(=O)N2CCN(c3ccccc3F)CC2)c2ccccc21
7	-2%	Cc1cc2c(cc1S(=O)(=O)Nc1cc(C(F)(F)F)cc(C(F)(F)F)c1)OCC(=O)N2
8	-5%	CCCCOC(=O)c1ccc(Nc2nc3ccc(C(=O)c4ccccc4)cc3n3cnnc23)cc1
9	-9%	CCCN1C(=O)c2[nH]nc(-c3ccc(F)cc3)c2C1c1ccccn1 (stereo not drawn)
10	-1%	CCOc1ccc(Sc2cc(C(=O)NC(C)c3ccccc3)c3ccccc3n2)cc1 (stereo not drawn)
11	-23%	CC(NC(=O)CCCn1c(=O)c2cccn2c2cccnc21)c1ccccc1 (stereo not drawn)
12	11%	CC(C(=O)NCc1ccccc1F)n1ccc2cc(S(=O)(=O)N3CCCC3)ccc21 (stereo not drawn)
13	3%	COc1ccc(-c2noc(CSc3nnc(-c4ccncc4)n3-c3ccc(C)cc3)n2)cc1
14	17%	CCc1ccc(NC(=O)CC2C(=O)N(c3cccc(C)c3)C(=O)N2CCC(C)C)cc1 (stereo not drawn)
15	11%	CC(C)c1ccc(NC(=O)c2cc(S(=O)(=O)NC3CCCCC3)ccc2F)cc1
16	9%	O=C(CSc1nc(Nc2ccc(F)c(F)c2)c2ccccc2n1)c1ccc(Cl)cc1
17	-2%	CCN(CC)S(=O)(=O)c1ccc2c(c1)c(=O)c(C(=O)N1CCN(c3cccc(Cl)c3)CC1)cn2C
18	4%	COCCCn1c(SCC(=O)NCc2ccccc2)nc2c(sc3ccccc32)c1=O
19	2%	CCOc1ccc(-c2cc(C(=O)N3CCN(c4cccc(C(F)(F)F)c4)CC3)c3ccccc3n2)cc1
20	-21%	CCN(CC)S(=O)(=O)c1ccc2nc(NC(=O)c3cccnc3)sc2c1
21	9%	CC1=C(c2ccc(Cl)cc2)S(=O)(=O)NC1=NCCCN1CCN(c2cc(C)ccc2C)CC1
22	6%	COc1cccc2sc(N(Cc3cccnc3)C(=O)c3ccco3)nc12
23	3%	Cc1ccccc1C(=O)N(Cc1ccc(N(C)C)cc1)Cc1ccco1
24	1%	Cc1ccc(C)c(NC(=O)c2cnc3sc(N4CCOCC4)nn3c2=O)c1
25	2%	Cc1noc2ncnc(N3CCCC(C(=O)NC(C)C)C3)c12 (stereo not drawn)
26	11%	COc1ccc(CC(=O)NCC(c2cccs2)S(=O)(=O)c2ccc(F)c(C)c2)cc1 (stereo not drawn)
27	26%	Cc1ccc(C(=O)CC2(O)C(=O)N(Cc3ccccc3)c3ccccc32)c(C)c1 (stereo not drawn)
28	-8%	CCc1ccc(NC(=O)Cc2csc(COc3cccc(C)c3)n2)cc1
29	21%	Cc1ccc(C)c(S(=O)(=O)c2nnn3c2nc(NC(C)C)c2sccc23)c1
30	-3%	COc1ccccc1N1CCN(c2ncnc3c2cnn3-c2ccc(C)cc2)CC1
31	-2%	Cc1ccc(NC(=O)CCS(=O)(=O)c2cc(Br)cc3c2N(C(=O)C2CC2)CC3)cc1
32	17%	COc1ccccc1Nc1c2c(nc3ccc(NC(=O)c4ccc(N(C)C)cc4)cc13)CCCC2
33	-11%	CC(C)COC(=O)/C(C#N)=C\c1ccc(-c2ccccc2Cl)o1
34	7%	Cc1ccc(Sc2c(C)nn(C(=O)COc3ccccc3)c2C)cc1
35	-20%	CCOC(=O)c1cccc(NC(=O)c2cc3ccccn3n2)c1
36	6%	CCCCOc1ccc(C(=O)N(Cc2ccc(N(C)C)cc2)Cc2ccco2)cc1
37	1%	COc1ccccc1NC(=O)Cn1c(=O)n(Cc2ccccc2)c(=O)c2c1c1cc(C)ccc1n2C
38	1%	CCOC(=O)c1cc(-c2ccccc2)n(CCCC(=O)Nc2cc(C)ccc2OC)c1C
39	4%	COC(=O)c1ccc(Nc2ncnc3c2nc2n3CCCC2)cc1
40	3%	CCC1CCCCN1S(=O)(=O)c1ccc(C(=O)Nc2sc3c(c2C(=O)NC)CCC3)cc1 (stereo not drawn)
41	?	Cn1c(-c2cccc(Br)c2)cnc1NCc1cccc(F)c1
42	-10%	Cc1ccc(CSC2=Nc3ccccc3C3=NC(CCC(=O)NC4CCCCC4)C(=O)N23)cc1 (stereo not drawn)
43	-2%	CCOc1ccccc1NC(=O)CN1C(=O)COc2ccc(S(=O)(=O)NC3CCCC3)cc21
44	-9%	CCOC(=O)N1CCc2c(sc3c2c(=O)n(-c2ccc(Cl)cc2)c(=O)n3CC(=O)c2ccc(F)cc2)C1
45	-4%	Cc1cccc(Cn2c(=O)n(CCC(=O)NCc3ccc4c(c3)OCO4)c(=O)c3sccc32)c1
46	-9%	COc1ccc2oc(=O)c(-c3cn4c(n3)sc3cc(OC)ccc34)cc2c1
47	-1%	Cc1ccc(NC(=O)c2oc3ccc(S(=O)(=O)N4CCC5(CC4)OCCO5)cc3c2C)cc1Cl
48	25%	O=C1N(Cc2cccc(C(F)(F)F)c2)c2ccccc2S(=O)(=O)N1c1cccc(Cl)c1
49	1%	Cc1ccc2oc(=O)n(CCNC(=O)Nc3ccccc3C)c2c1
50	-14%	COc1ccc(OC)c(-c2cc(C(=O)Nc3cnn(Cc4ccc(Cl)cc4Cl)c3)no2)c1
51	-3%	Cc1ccc(-c2nn(-c3ccc(F)cc3)c3c2cnc2cc(F)c(F)cc23)cc1
52	1%	CC(C)c1ccc(OCC(=O)NCCS(=O)(=O)N2CCN(c3ccc(F)cc3)CC2)cc1
53	0%	CC(C)c1cnc2c(c1SCc1cccc(C(F)(F)F)c1)c(=O)n(C)c(=O)n2C
54	-16%	O=C(NCCN1CCCCC1)c1ccc(Cn2c(SCc3cccc(F)c3)nc3cccnc32)cc1
55	0%	CCC(=O)N1c2ccccc2CC1C(=O)NCc1ccc(OC(C)C)cc1 (stereo not drawn)
56	-7%	Cc1cccn2c(=O)cc(COc3cccc(NC(=O)COc4ccc(F)cc4)c3)nc12

The results go on:
no.	miR-21 FLuc	smiles
57	3%	Cn1c(=O)n(CCc2ccccc2)c(=O)c2c1nc1n2CCN1c1ccc(Cl)cc1
58	23%	COc1cccc(N=C2SC(C(=O)Nc3cccc(Cl)c3)CC(=O)N2C)c1 (stereo not drawn)
59	-8%	CCOC(=O)c1ccc(NC(=O)CCn2c(=O)c3cccn3c3cccnc32)cc1
60	?	Cc1ccc(Cl)cc1N(C)C(=O)c1cc2ccc3cccnc3c2[nH]1
61	2%	Cc1cccc(C)c1-n1ncc(C(=O)NCCCN2CCC(C)CC2)c1C1CCN(C(=O)OC(C)(C)C)CC1
62	-4%	Cc1ccc(N2CCn3c2nc2c3c(=O)n(Cc3cccc(Cl)c3)c(=O)n2C)cc1C
63	28%	COc1ccccc1NC(=O)CN1C(=O)C(c2ccc(F)cc2)=NC12CCCCC2
64	7%	CSc1ccc(CCNC(=O)Cn2ccc3cc(S(=O)(=O)N4CCCCCC4)ccc32)cc1
65	8%	CCCCN(CC)C(=O)c1ccc2c(c1)NC(=O)c1ccccc1S2
66	-5%	CCOC(=O)c1ccc(NS(=O)(=O)c2ccc3c(c2)OCCO3)cc1
67	9%	CCOc1ccc(-n2cc(-c3ccccc3)c3c(N4CCC(C)CC4)ncnc32)cc1
68	0%	Cc1ccc(Cn2c(CNS(=O)(=O)c3ccc(C(C)(C)C)cc3)nc3cccnc32)cc1
69	-2%	Cc1c2cnn(CC(=O)NCC(C)c3ccccc3)c(=O)c2c(C)n1Cc1cccc(Cl)c1 (stereo not drawn)
70	3%	Cc1ccc(-c2nc(-c3cc4cccc(OCc5ccc(F)cc5)c4oc3=O)no2)cc1
71	-16%	COc1ccc(-c2nc3c4ccccc4n(CC(=O)Nc4cc(F)ccc4F)c(=O)n3n2)cc1
72	-29%	Cc1cccc(C(=O)n2nc(-c3ccco3)nc2NCc2ccccc2)c1
73	1%	Cc1ccc(N2CC(c3nnc(Cc4ccc(Cl)cc4)o3)CC2=O)cc1 (stereo not drawn)
74	-1%	Cc1nnc2c3ccccc3nc(N3CCN(c4ccccc4)CC3)n12
75	22%	Cc1cccc(N2CCN(S(=O)(=O)c3cc(C(=O)Nc4ccc(Oc5ccccc5)cc4)ccc3F)CC2)c1C
76	?	COc1cc(OC)cc(C(=O)NCc2ccc3c(c2)CCN3C(=O)c2ccccc2)c1
77	13%	O=C(NCCc1nc2ccccc2n1Cc1ccc(Cl)cc1)c1ccccc1
78	-9%	COc1ccc(-c2nc3ccccc3n3c(-c4cccc(C)c4)c4c(=O)n(C)c(=O)n(C)c4c23)cc1
79	10%	COc1cc(-c2cc3n(C)c(C)c(CCC(=O)NC4CCCCC4)c(=O)n3n2)cc(OC)c1OC
80	-10%	CC(C)c1ccc(S(=O)(=O)c2nnn3c2nc(N2CCN(C)CC2)c2sccc23)cc1
81	20%	O=C(NCc1cccc(Cl)c1)C1CCCN(c2nn3cc(-c4ccc(F)cc4)nc3s2)C1 (stereo not drawn)
82	1%	Cc1ccccc1NC(=O)CSc1cn(CC(=O)N2CCCC2)c2ccccc12
83	4%	Cc1ccc(N2C(=O)CSC23C(=O)N(CC(=O)NCCc2ccccc2)c2ccccc23)cc1 (stereo not drawn)
84	-7%	CCOc1ccc(C2CC(=O)Nc3c2c(=O)nc(SCc2ccccc2C)n3C)cc1OC (stereo not drawn)
85	-8%	Cc1cccc(C(=O)NCCc2sc(-c3ccccc3)nc2C)c1
86	5%	CCOC(=O)c1cccc(NC(=O)c2nn(-c3ccc(OC)cc3)c(=O)c3c2c2ccccc2n3C)c1
87	-3%	CCc1cnc2c(c1SCc1cc(OC)cc(OC)c1)c(=O)n(C)c(=O)n2C
88	-2%	CCCCNC(=O)C1CCN(S(=O)(=O)c2ccc3c(ccn3CC)c2)CC1
89	14%	Cc1cc(N2CCCCC2)nc2ccc(NC(=O)c3cccc(Cl)c3)cc12
90	-20%	CCc1ccccc1Nc1nc2ccccc2c2nncn12
91	-2%	CCCNC(=O)C1CCC(Cn2c(=O)c3sccc3n(Cc3ccccc3F)c2=O)CC1 (stereo not drawn)
92	3%	Cc1ccccc1CNC(=O)C(C)N(c1ccccc1)S(C)(=O)=O (stereo not drawn)
93	-12%	CCC1CCc2nc3sc(C(=O)Nc4ccc(F)c(F)c4)c(N)c3cc2C1 (stereo not drawn)
94	5%	Cc1ccc2[nH]c3c(=O)n(CC(=O)N4CCCC(C)C4)ncc3c2c1 (stereo not drawn)
95	-1%	COc1ccc2c(c1)c1c(c(=O)n(-c3cccc(C)c3)c(=O)n1Cc1cccc(Cl)c1)n2C
96	-12%	COc1cc(C)cc2oc(=O)c(CC(=O)NCCc3ccc(Cl)cc3)c(C)c12
97	-5%	COCCNc1ncnc2c1c(-c1ccccc1)cn2-c1ccc(C)c(Cl)c1
98	-13%	Cc1cc2oc(C(=O)N(Cc3ccccc3)C3CCS(=O)(=O)C3)cc(=O)c2cc1C (stereo not drawn)
99	3%	Cc1cc(=O)n2nc(N(C)CC(=O)NCc3ccc(Cl)cc3)sc2n1
100	-1%	O=C(Nc1c(-c2ccc(F)cc2)nc2ccccn12)c1cccc(F)c1
101	30%	COc1ccc(C(CNC(=O)c2oc3ccccc3c2C)N2CCCCC2)cc1 (stereo not drawn)
102	-1%	O=C(COc1ccccc1Cl)Nc1ccccc1OCc1cc(=O)n2ccccc2n1
103	6%	CC(C)(C)CC(=O)Nc1nnc2n1CCS2
104	0%	CCOC(=O)c1cc(-c2ccc(C)cc2)n(CCCC(=O)Nc2cc(C)ccc2C)c1
105	0%	COc1ccc2c(c1)sc1ncc(C(=O)NCc3ccc(Cl)cc3)c(=O)n12
106	-41%	Cc1ccn2c(Nc3ccc4c(c3)OCCO4)c(-c3cccs3)nc2c1
107	16%	COc1ccc(-c2nc(-c3ccccc3)c(-c3ccc(O)cc3)[nH]2)cc1
108	0%	CC(C)c1ccc(Nc2c(-c3ccco3)nc3ccccn23)cc1
109	26%	CCOc1ccc(NC(=O)N(Cc2cn(CC)c3ccccc23)C2CCCCCC2)cc1
110	0%	Cc1cccc(N2CCN(C(=O)c3cccc(-n4c(C)nc5cccnc54)c3)CC2)c1C
111	6%	O=C(NCCCN1CCOCC1)c1ccc2c(c1)N(Cc1cccc(Cl)c1)C(=O)c1ccccc1S2
112	20%	COc1ccc(OCCn2cc(C(=O)c3ccco3)c3ccccc32)cc1
113	21%	O=C(Nc1ccc(C(F)(F)F)cc1)c1cc(S(=O)(=O)NC2CCCCC2)ccc1F

As a short view, part of the list above.
no.	miR-21 FLuc	smiles
105	0%	COc1ccc2c(c1)sc1ncc(C(=O)NCc3ccc(Cl)cc3)c(=O)n12
106	-41%	Cc1ccn2c(Nc3ccc4c(c3)OCCO4)c(-c3cccs3)nc2c1
107	16%	COc1ccc(-c2nc(-c3ccccc3)c(-c3ccc(O)cc3)[nH]2)cc1
108	0%	CC(C)c1ccc(Nc2c(-c3ccco3)nc3ccccn23)cc1
109	26%	CCOc1ccc(NC(=O)N(Cc2cn(CC)c3ccccc23)C2CCCCCC2)cc1

Of the compounds above, these have an NH in an aromatic ring.
no.	miR-21 FLuc	smiles
1	9%	COc1ccc(-n2c(SCC(=O)Nc3cccc(C)c3C)nc3c([nH]c4ccccc43)c2=O)cc1
9	-9%	CCCN1C(=O)c2[nH]nc(-c3ccc(F)cc3)c2C1c1ccccn1 (stereo not drawn)
60	?	Cc1ccc(Cl)cc1N(C)C(=O)c1cc2ccc3cccnc3c2[nH]1
94	5%	Cc1ccc2[nH]c3c(=O)n(CC(=O)N4CCCC(C)C4)ncc3c2c1 (stereo not drawn)
107	16%	COc1ccc(-c2nc(-c3ccccc3)c(-c3ccc(O)cc3)[nH]2)cc1

Screening results: PubChem, National Center for Advancing Translational Sciences (NCATS)
